nsP2pro primary: inhibitors of chikungunya virus nsP2 protease; Q8JUX6; FRET peptide cleavage, nsP2pro, fluorescence 1 h; Potency, µM (doses to about 24.9 µM), inactives show at the top dose activity change, negative = inhibition, hits mostly inhibitors; 1.1% of 31,000 active; active means well fitted inhibition curve with a large enough effect; inconclusive means small, poorly fitted or top-dose-only effect; inactive means no such curve, though single readings can be large or run the other way; further: nearly all actives have a fitted effect of over 60% in size; a reference inhibitor and vehicle were the controls
* hit, by the source's call; i = inactive; ? = inconclusive; [ ] = remark or other dose. On the % scale 0 is the no-effect control and ±100 the full control effect; potency means the concentration at half of the fitted maximal effect.

Start of the listing, in advance:
SMILES	nsP2pro primary
Cn1nnc(-c2ccc(-c3ccc(N4C[C@@H](CO)OC4=O)cc3F)cn2)n1	1%
C=CC(C)(CC/C=C(\C)C(=O)OC)OC1OC(COC(=O)CC(C)(O)CC(=O)O)C(OC2OC(CO)C(O)C(O)C2O)C(O)C1O (stereo unspecified)	1%[10 µM]
O=C(c1ccn[nH]1)N1CCCCC1c1nc(CCOCC2CCCC2)no1 (stereo unspecified)	-2%
CCCC(=O)NCCc1csc(-c2ccc(Cl)cc2)n1	2%

The list itself (from the top)
SMILES	nsP2pro primary
Cn1nnc(-c2ccc(-c3ccc(N4C[C@@H](CO)OC4=O)cc3F)cn2)n1	1%
C=CC(C)(CC/C=C(\C)C(=O)OC)OC1OC(COC(=O)CC(C)(O)CC(=O)O)C(OC2OC(CO)C(O)C(O)C2O)C(O)C1O (stereo unspecified)	1%[10 µM]
O=C(c1ccn[nH]1)N1CCCCC1c1nc(CCOCC2CCCC2)no1 (stereo unspecified)	-2%
CCCC(=O)NCCc1csc(-c2ccc(Cl)cc2)n1	2%
CC(=O)c1ccc(N2CCN(c3nc4ccccc4c4nc(-c5cccc(C)c5)nn34)CC2)cc1	-18%
COc1ccc(-c2nnc3n2N=C(c2c(OC)cccc2OC)CS3)c(OC)c1	i
CCCS(=O)(=O)N1CCc2nnc(C3CC3)n2CC1	-1%
COc1ccc(C(=O)N2CCC3(CCC3OC)CC2)cn1 (stereo unspecified)	-13%
CC(=O)c1c(O)cc(O[C@@H]2O[C@H](CO)[C@@H](O)[C@H](O)[C@H]2O)cc1O	77%[activator]
Cc1ccc(C)c(NC(=O)CN(Cc2ccccc2)S(=O)(=O)c2ccc3nc(C)sc3c2)c1	?
COc1ccc(NC(=O)CCc2c(C)nn(-c3ccc(N4CCCC4)nn3)c2C)cc1Cl	1%
COc1ccc(CNC(=O)CN2C(=O)COc3ccc(S(=O)(=O)N4CCCCCC4)cc32)cc1	-10%
Cc1nc(-c2cccc(NC(=O)Nc3ccccc3C(F)(F)F)c2)no1	1%
Cc1ccc(-c2nn(C(C)(C)C)c3ncnc(N)c23)cc1	-6%
CNC(=O)c1[nH]nc2c1C(c1cc(OC)ccc1-n1cccn1)CC(=O)N2 (stereo unspecified)	i
Cc1ccc(-c2nnc(C3CN(C(=O)c4ccnn4C)CC34CCOCC4)o2)cc1 (stereo unspecified)	-3%
O=C(NCCc1ccccc1)c1ccc(CS(=O)(=O)c2ccc(Cl)cc2)o1	-11%
Cc1ccc(C)c(N2CCN(CCCNC(=O)c3ccc4nc(N5CCC(C)CC5)sc4c3)CC2)c1	21%
COc1ccc(CC(NC(C)=O)C(=O)O)cc1 (stereo unspecified)	138%[activator]
COc1ccc(N2CC(C(=O)Nc3ccccc3-c3nc(-c4ccc(C)cc4)no3)CC2=O)cc1 (stereo unspecified)	-15%

Exported as comma-separated lines: entries from further up
SMILES,nsP2pro primary
COc1ccc(CC(NC(C)=O)C(=O)O)cc1 (stereo unspecified),138%[activator]
Cc1ccc(-c2nn(C(C)(C)C)c3ncnc(N)c23)cc1,-6%
Cc1nc(-c2cccc(NC(=O)Nc3ccccc3C(F)(F)F)c2)no1,1%
COc1ccc(-c2nnc3n2N=C(c2c(OC)cccc2OC)CS3)c(OC)c1,i
CCCS(=O)(=O)N1CCc2nnc(C3CC3)n2CC1,-1%
CC(=O)c1c(O)cc(O[C@@H]2O[C@H](CO)[C@@H](O)[C@H](O)[C@H]2O)cc1O,77%[activator]

(list continues)
SMILES	nsP2pro primary
O=C(c1ccccc1)N1CCC(c2nnc3n2C(C(=O)N2CCN(c4ncccn4)CC2)CC3)CC1 (stereo unspecified)	?
Cc1ccn2c(Nc3ccc4c(c3)OCO4)c(-c3ccccn3)nc2c1	i
COc1ccc(-c2csc(NC(=O)c3ccccc3NS(=O)(=O)c3ccc(C)cc3)n2)cc1	-4%
C/C=C(/C)C(=O)OC1C=C2C3C(C)C(C)C(OC(=O)C(C)C(C)O)CC3(C)CCC2(C)C2(C)CC(OC(C)=O)C3C(C)(C)C(O)C(=O)CC3(C)C12 (stereo unspecified)	2%[10 µM]
CCOc1ccc(CCNC(=O)c2cc3sccc3n2CCc2ccccc2)cc1OCC	i
NCCCCCNC1(c2ccccc2)CCCCC1	2%
O=C(c1ccc2c(c1)N(C(=O)c1ccccc1)CC2)N1CCN(c2ccc(Cl)cc2)CC1	-9%
C[S+](=O)([O-])N1CCn2c(nnc2-c2ccccc2)C1	2%[39.2 µM]
CNC(=O)Nc1ccc(C)n(CC(=O)N2CCN(c3cc(C)ccc3C)CC2)c1=O	?
CN(Cc1ccc(F)cc1)C1CCCc2ccccc21 (stereo unspecified)	4%[39.2 µM]
CCN(Cc1nc(C)no1)C(=O)c1cc(COc2cccc(F)c2)[nH]n1	i
O=C1NCCCCCCN[C@H]2C[C@H](c3nc(-c4cnccn4)no3)C[C@@H]12	2%
CC12CC(O)C(O)C=C1c1cc(O)cc(O)c1C(=O)O2 (stereo unspecified)	-8%
COC1C2=C(COC2=O)C2(C)CCCC(C)(CO)C2C1OC(=O)c1ccccc1 (stereo unspecified)	-2%[10 µM]
Cc1cc(C(=O)N2C[C@@H](CN3CCCCCC3)[C@@H](CO)C2)nc(C)n1	3%
CCC(C)NC(=O)CCCN1C(=O)CCn2nc(-c3cccn3C)cc21 (stereo unspecified)	-29%
Cc1ccc(S(=O)(=O)Nc2cnccc2C(=O)Nc2nc(-c3cccc(Cl)c3)cs2)cc1	i
COc1ccc(-c2cc(C(=O)NCC3CC3)c3c(C4CCCN4)noc3n2)cc1 (stereo unspecified)	-2%
COc1ccc(CNC(=O)c2ccc3c(Cl)c4c(nc3c2)CCCC4)c(OC)c1	-1%
CCC1=C(c2ccc(C)cc2)S(=O)(=O)N=C1N1CCC(C(=O)Nc2ccccc2C(=O)OC)CC1	-18%
NC(Cc1ccccc1)C(=O)N1CCC2(CC1)CN(C(=O)c1ccc(Cl)cc1)CCO2 (stereo unspecified)	-10%
COC(=O)c1ccccc1NC(=O)Cn1nc2n(c1=O)CCCCC2	-1%
C[C@@H]1O[C@@H](O[C@H]2[C@H](O[C@H]3[C@H](O)[C@@H](C(=O)O)O[C@@H](O[C@H]4CC[C@@]5(C)C(CC[C@]6(C)C5CC[C@]57OC[C@@]8(CCC(C)(C)CC85)[C@H](O)C[C@]76C)C4(C)C)[C@@H]3O[C@@H]3O[C@H](CO)[C@@H](O[C@@H]4OC[C@@H](O)[C@H](O)[C@H]4O)[C@H](O)[C@H]3O)O[C@H](CO)[C@H](O)[C@@H]2O)[C@H](O)[C@H](O)[C@H]1O (stereo partly specified)	?
O=C(Nc1ccc2c(c1)OCO2)c1cccn(Cc2ccc(F)cc2)c1=O	-14%
COCCNc1ncccc1-c1noc([C@@H]2CCCN2C2CCN(C)CC2)n1	i
O=S(=O)(NCCNS(=O)(=O)c1c(F)cccc1F)c1ccc2c(c1)OCCO2	-20%
CC(=O)NC1C(OC(C)(C)C2CCC3(C)C=C(C4CCC5C4(C)CC(O)C4OC(C(C)(C)O)CCC45C)CCC3O2)OC(CO)C(O)C1O (stereo unspecified)	-6%[10 µM]
COc1ccc(CN(Cc2ccccc2)C(=O)c2ccccc2O)cc1	-13%
Cn1cc(P(=O)(c2ccccc2)c2ccccc2)c2ccccc21	2%
CCOc1ccccc1CNC(=O)c1cc2c(=O)n(Cc3ccccc3)ccc2nc1C	-5%
COc1ccccc1NC(=O)CSc1nnc(NC(=O)NC2CCCCC2)s1	-19%
CCN(CC)S(=O)(=O)c1ccc(C(=O)NCCSc2c(-c3ccc(OC)cc3)[nH]c3ccccc23)cc1	-11%
C/C1=C\C[C@]2(C)C(=O)C(O)=C([C@H](C)CO)[C@H]2C/C=C(\C)[C@@H](O)CC/C(C)=C/CC1	-18%
CCOc1cccc2c1OC(c1ccc(F)cc1)C([N+](=O)[O-])=C2 (stereo unspecified)	-6%
COCC1(C(=O)N2CCN(C)C3(CCNC(=O)CC3)C2)CCC1 (stereo unspecified)	-11%
CCCN1CCN(CCCNC(=O)c2cc3c(Cl)nc4ccccc4c3s2)CC1	58%[activator]
CCOc1ccc(NC(=O)c2oc3ccccc3c2NC(=O)Cc2cccs2)cc1	-22%
CCOC(=O)C1CCN(C(=O)C(C)(C)NC(=O)Nc2ccc(N(C)C)cc2)CC1	i
COc1cc(Br)c(S(=O)(=O)Nc2ccc(C(F)(F)F)c(O[C@@H]3CCN(C)C3)c2)cc1OC	6%
O=C(Nc1ccc(S(=O)(=O)Nc2nccs2)cc1)c1ccnc(-c2ccccc2)c1	i
COc1ccc(NC(=O)CCCN2C(=O)CCn3nc(-c4cn(C)c5ccccc45)cc32)cc1OC	-4%
COc1ccccc1CNc1nc2ccccc2c2nc(-c3cccc(C)c3)nn12	-14%
COc1cccc(N2C(=O)CSC23C(=O)N(Cc2ccccc2F)c2ccccc23)c1 (stereo unspecified)	-19%
FC(F)(F)c1ccccc1-c1nc(NCc2ccc(-c3cccc4ccccc34)cc2)c2ccccc2n1	i
Cn1c2cc(Br)sc2c2cnn(Cc3ccccc3F)c(=O)c21	0%
O=C(NCCCN1CCN(c2cccc(Cl)c2)CC1)c1ccc2nc(Cc3ccccc3)oc2c1	1%
Cc1ccc(S(=O)(=O)O)cc1	7%
O=C(CO)[C@@H](O)[C@H](O)[C@@H](O)CO	-9%
O=C(Nc1ccc(Cl)c(C(F)(F)F)c1)Nc1cccc(-c2ccncc2)n1	1%
CN1CCc2cc3c(cc2C1C1OC(=O)c2c1ccc1c2OCO1)OCO3 (stereo unspecified)	-11%
c1cc(-c2nc(C3CCOC3)nn2Cc2ccc3c(c2)OCO3)[nH]n1 (stereo unspecified)	i
Cc1ccc(Cn2nc(C)c(NC(=O)c3cc(-c4ccc(F)cc4)on3)c2C)cc1	-2%
O=C(NCCc1csc(-c2ncccn2)n1)C1NCCc2[nH]cnc21 (stereo unspecified)	i
NS(=O)(=O)c1ccc(CCNC(=O)Cn2c(=O)c3cccn3c3ccc(F)cc32)cc1	-24%
O=C1CN(Cc2ccc(-c3ccccc3)cc2)CCN1c1ccc(Cl)nn1	i
CC(C)c1ccc(S(=O)(=O)c2nnn3c2nc(N2CCCCC2)c2sccc23)cc1	-14%
Cc1cccc2c(C(=O)O)cc(Cl)nc12	-2%
CCc1nc(C)sc1C(=O)N1C[C@@H](C(=O)O)[C@H](c2cccc(OC)c2)C1	3%
OCC1OC(Oc2cc(O)c3c(c2)OC(c2ccc(O)cc2)C(O)C3)C(O)C1O (stereo unspecified)	-4%[10 µM]
CC1=CC(=O)C[C@H]2[C@@H]1CC[C@@H](C)[C@]21CO[C@H](c2ccoc2)C1=O	?
(continued)
SMILES	nsP2pro primary
Cc1ccc(S(=O)(=O)N(C)c2ccccc2C(=O)Nc2nc(-c3ccccc3)cs2)cc1	-13%
O=C1NCCOCCN(C(=O)Nc2ccc3c(c2)OCCO3)[C@@H]2CCCC[C@H]12	-19%
CCCS(=O)(=O)c1ncc(Cl)c(C(=O)N(Cc2ccccc2)Cc2ccco2)n1	5.6µM*
C=C1C(OC(C)=O)C(=O)C2C(C)(C)C(OC(C)=O)CCC2(C)C1CC(OC(C)=O)/C(C)=C/COC(C)=O (stereo unspecified)	-3%[10 µM]
CC(C)=CCC(O)[C@](C)(O)C1[C@H](O)C[C@@]2(C)C3CC=C4C(C[C@H](O)[C@@H](O[C@@H]5O[C@H](CO)[C@@H](O)[C@H](O)[C@H]5O)C4(C)C)[C@]3(C)C(=O)C[C@]12C (stereo partly specified)	?
O=C1C(c2c(O)[nH]c3ccccc23)=Nc2ccccc21	10%[10 µM]
CC(C)NC(=O)c1nc(-c2ccc([S+](C)(=O)[O-])cc2)c2ccccn12	4%
CCOc1ccccc1CNC(=O)CN1C(=O)c2cccnc2Oc2ccc(C)cc21	-20%
CCc1cnc(C2CCN(C(=O)OC(C)(C)C)CC2)[nH]1	0%[39.2 µM]
CC(C)n1cc2cc(C(=O)O)sc2c1	-6%
COc1ccc(NC(=O)CSc2cn(CCNC(=O)c3c(F)cccc3F)c3ccccc23)cc1	-18%
C=CS(=O)(=O)NC1CCN(C(=O)CNc2cc(I)c(Cl)cc2OC)CC1	?
CC(C)CN1CCN(C(=O)c2ccc3c(c2)CC(=O)N3Cc2ccc(F)cc2)CC1	-9%
C=Cc1c(C)c2cc3nc(c(CC(=O)N[C@@H](CC(=O)O)C(=O)O)c4nc(cc5[nH]c(cc1[nH]2)c(C)c5CC)C(C)=C4C(=O)O)[C@@H](CCC(=O)O)[C@@H]3C	2%
CN1C(=O)N(C)C2(CCN(CCOc3ccccc3)C2)C1=O (stereo unspecified)	5%
c1ccc(C2(c3ccccc3)CC2C2=NCCN2)cc1 (stereo unspecified)	-4%
CSc1ncc(C(=O)NCc2cccc(Br)c2)c(-c2ccccc2)n1	?
Cn1c(-n2cccc2)c(-c2c(-c3ccc(F)cc3)[nH]c3c2c(=O)[nH]c(=O)n3C)c(=O)[nH]c1=O	-23%
COC(=O)c1ccc(OCC(O)Cn2cnc3cc(C)c(C)cc32)cc1 (stereo unspecified)	48%[activator]
CCCN(CCC)CCCNC(=O)Cn1cnc2onc(-c3ccc(F)cc3)c2c1=O	-8%
CC(C)n1c(=O)c(C(=O)NC2CC3CCC(C2)N3C[C@@H](O)CN(C)S(C)(=O)=O)cc2ccccc21 (stereo partly specified)	5%
Cc1nn(C)c2c1C(c1ccccc1F)=NCC(=O)N2C	-3%

These rows are one share of the data (hit frequency here may not be typical).
